# High-throughput results as filed in PubChem.
# Insulin prom inh = inhibitors of insulin promoter-driven GFP, primary screen, imaging, TRM-6 cells (human fetal islet line), eGFP reporter, cell count. reporter expression induced with tamoxifen. 0.9% of 130,000 active. AID 1273, 2008. inhibition, % at 2 µM;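 active means inhibition above the mean plus 3 SD, with well images judged a real hit on visual review, cut at about 60% in these data, passing the limit was not always enough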
# GALR2 ag = GALR2 receptor agonists, primary screen, cell-based; AID 803, 2007; Galanin receptor type 2 (Homo sapiens), O43603; GALR2-expressing cells, agonist activation read-out; activation, %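 (tested at 5 µM)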; 0.48% of 140,000 active;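 active means above mean plus 3 SD of all compounds, about 5% in these data, not always enough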;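 further: 0% = vehicle buffer wells and 100% = reference agonist at full effect; tested in CHO reporter cells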
# Target sequence (O43603 whole entry, looked up): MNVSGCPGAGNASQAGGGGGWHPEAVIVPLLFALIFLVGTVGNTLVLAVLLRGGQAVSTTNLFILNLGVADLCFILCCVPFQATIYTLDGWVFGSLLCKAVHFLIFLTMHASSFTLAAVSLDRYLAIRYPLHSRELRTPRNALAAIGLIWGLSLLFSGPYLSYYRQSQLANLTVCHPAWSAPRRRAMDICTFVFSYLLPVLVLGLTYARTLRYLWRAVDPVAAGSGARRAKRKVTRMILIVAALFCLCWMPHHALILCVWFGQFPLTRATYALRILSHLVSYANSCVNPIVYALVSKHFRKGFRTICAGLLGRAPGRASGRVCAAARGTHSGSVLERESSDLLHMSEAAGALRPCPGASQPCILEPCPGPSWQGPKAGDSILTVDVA
# HSV augment = enhancers of HSV replication in host cells, fold increase, host cell viability; HSV replication augmentation in cells; maximum fold increase; 0.005% of 220,000 active;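 active means peak rise of 1.5-fold or more in the series; tested in PC3 cells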;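 further: first round at 10 µM; read as green reporter fluorescence; hits show the peak of a series up to 25 µM; 1 = signal of infected wells without compound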
# RGS16-Gao = modulators of RGS16 binding to Galphao, primary screen, biochemical, human proteins, multiplexed bead flow cytometry; Regulator of G-protein signaling 16 (Homo sapiens) + Guanine nucleotide-binding protein …; bead-based flow cytometry RGS16-Galphao binding, fluorescence; actives lie on both sides; binding response (% of control), % at 10 µM; 0.38% of 220,000 active; AID 1441, 2008;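 active means below 25% or above 175%, edge rows of some plates excepted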;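 further: Galphao activated by GDP with aluminum fluoride before binding; 100% = wells without compound and 0% = beads without RGS; some results beyond the cut were filed as inactive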
# Target sequence (O15492 whole entry, looked up): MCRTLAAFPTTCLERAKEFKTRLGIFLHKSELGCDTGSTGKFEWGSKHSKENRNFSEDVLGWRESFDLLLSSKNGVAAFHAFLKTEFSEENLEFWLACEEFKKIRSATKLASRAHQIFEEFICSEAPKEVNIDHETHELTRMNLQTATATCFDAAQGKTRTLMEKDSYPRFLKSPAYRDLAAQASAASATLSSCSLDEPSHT
# Target sequence (P09471 whole entry, looked up): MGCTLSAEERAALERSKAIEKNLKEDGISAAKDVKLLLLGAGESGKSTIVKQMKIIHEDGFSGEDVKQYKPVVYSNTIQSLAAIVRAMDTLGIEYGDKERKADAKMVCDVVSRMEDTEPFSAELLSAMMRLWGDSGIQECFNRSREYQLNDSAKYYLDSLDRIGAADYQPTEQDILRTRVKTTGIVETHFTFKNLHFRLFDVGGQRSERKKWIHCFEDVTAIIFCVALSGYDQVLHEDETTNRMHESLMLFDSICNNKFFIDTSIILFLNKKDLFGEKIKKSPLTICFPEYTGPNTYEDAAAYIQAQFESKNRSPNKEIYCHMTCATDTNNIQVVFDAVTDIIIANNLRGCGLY
# PKD1 inh = inhibitors of human PKD1 kinase, biochemical, fluorescence polarization; Serine/threonine-protein kinase D1 (Homo sapiens), Q15139; PKD1 kinase fluorescence polarization assay; inhibition, %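 (about 10 µM by stock and volumes)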; 0.056% of 200,000 active;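 active means inhibition of 50% or more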;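 further: controls were vehicle for no effect and a reference inhibitor for full effect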
# Insulin prom inh cell count = second read-out of Insulin prom inh, no call of its own (marks repeat the call); normalized cell count, %; measured here: cell count, toxicity; reference of the scale not given here;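 cells exposed to compound for 48 h; stained nuclei by imaging scaled within each plate; lower means fewer cells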
# HSV augment primary fold = also measured in HSV augment; calls as there; fold increase; compound at 10 µM; measured here: primary screen fold increase 10 uM; tested in PC3 cells;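 GFP signal in the first replicate; 1 = infected wells without compound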
# The depositor's hits bear a star; i = inactive; x = no result given.
mol,Insulin prom inh,Insulin prom inh cell count,GALR2 ag,HSV augment,HSV augment primary fold,RGS16-Gao,PKD1 inh
COc1cc(/C=N/n2cnc3scc(-c4cccs4)c3c2=O)cc(OC)c1OC,-114,84,-2.1,i,0.69,104,-14
Cc1ccc(S(=O)(=O)N/N=C/c2ccc(OCC(=O)N3CCOCC3)cc2)cc1,x,x,x,i,0.92,104,4
CCc1c(C(C)O)oc2ccc3c(C)cc(=O)oc3c12 (stereo not given),51,78,1.2,i,0.8,96,-2
COc1ccccc1N1CCN(C(=O)c2ccc(CN3CCOCC3)cc2)CC1,x,x,x,i,0.82,98,-4
CC1=C(C(=O)N2CCOCC2)C(c2ccc(C)cc2)NC(=S)N1 (stereo not given),x,x,-0.6,i,1,94,7
Cc1cc(-c2n[nH]c(=S)n2/N=C/C=C/c2ccccc2)n[nH]1,6,131,0.3,i,1.2,102,3
COc1ccccc1NS(=O)(=O)c1ccc(Br)s1,x,x,-0.5,i,0.8,98,-5
O=C(CSc1ccc(-c2ccccc2)nn1)N1CCN(c2ccccc2)CC1,x,x,0.0,i,1.3,104,2
CN(CC(CC(=O)Nc1nncs1)c1ccccc1)S(=O)(=O)c1ccc(Br)cc1 (stereo not given),x,x,-2.0,i,1.3,98,0
CC(=O)Nc1ccc(/C=N/NC(=O)CNS(=O)(=O)c2ccccc2)cc1,33,93,x,i,0.85,104,2
Cc1ccc(C(c2sc3nc(C)nn3c2O)N2CCN(CCO)CC2)cc1 (stereo not given),x,x,x,i,0.83,94,x
O=C(CCC(=O)c1cccs1)c1cccs1,81*,123*,-1.4,i,1.1,37,5
Cn1c(SCC(=O)c2ccc3c(c2)OCCO3)nnc1C1CC1,-45,95,-1.0,i,0.76,122,-3
O=C(CSc1nnc(-c2ccc(C(F)(F)F)cn2)o1)Nc1cccc(Cl)c1,x,x,x,i,0.96,98,x
N#CC1=C(N)Oc2n[nH]c(-c3cccnc3)c2C1c1ccc([N+](=O)[O-])o1 (stereo not given),-58,88,x,i,1,107,1
CC(C)CNS(=O)(=O)c1ccc(S(=O)(=O)N2CCN(CCC#N)CC2)cc1,-71,106,-1.5,i,0.93,117,3
O=C1/C(=C/c2cccc([N+](=O)[O-])c2)CCc2ccccc21,8,81,-0.1,i,0.82,85,-4
CN(C)CCNC(=O)C1CCCNC1=O (stereo not given),19,61,-2.2,i,0.82,102,1
Cc1cccc(C(=O)NC(=S)N2CCc3ccccc3C2)c1,-7,103,-1.4,i,1.1,106,5
Cc1nc2ccc([N+](=O)[O-])cc2s1,-8,169,x,i,0.88,103,-1
O=C1OCCC1Sc1nnc(-c2ccco2)o1 (stereo not given),7,169,-2.4,i,1,87,-5
CCN(CC)C(=O)CSc1nnc(SCc2ccc(Cl)cc2)s1,-44,104,-0.9,i,0.91,98,-1
O=C(CCC(=O)c1cccs1)OCC(=O)N1CCN(C(=O)c2ccco2)CC1,20,98,-1.8,i,0.94,98,-2
Cc1ccc2cc(NC(=O)c3cccc(F)c3)ccc2n1,x,x,x,i,0.99,90,x
COC(=O)c1cc(-c2ccc(Br)cc2)on1,x,x,-1.3,x,x,78,6

# Later entries
mol,Insulin prom inh,Insulin prom inh cell count,GALR2 ag,HSV augment,HSV augment primary fold,RGS16-Gao,PKD1 inh
COc1ccccc1NC(=O)Nc1nnc(CC(=O)Nc2ccccc2C)s1,x,x,x,i,0.88,103,2
COC(=O)C1CCN(C(=O)Cc2c(OC)ccc3cc(Br)ccc23)CC1,x,x,x,i,1,105,7
CCCCOc1ccc(OCCCC)c2c1NC1(N2)C(=O)N(C(C)=O)c2ccccc21,x,x,-0.7,i,0.99,98,-17
Cc1ccc(NC(=O)CCC(=O)NNC(=O)C(C)(C)C)c(C)c1,-14,96,x,i,1,101,-3
CC(C)(C)c1ccc(OCC(=O)OCCNC(=O)c2cccnc2)cc1,11,9,-1.5,i,1,102,1
Brc1ccc(Nc2nc3ccccc3n3nnnc23)cc1,-7,125,-1.1,x,x,95,-9
CCOC(=O)C1(S(=O)(=O)c2ccc(Cl)cc2)CCN(Cc2ccc(C)cc2)CC1,30,155,-3.1,i,1.2,102,-11
C=CCNC(=O)c1ccc(Sc2ccc(C)cc2)c([N+](=O)[O-])c1,-11,84,-2.6,i,0.94,99,3
O=S(=O)(Cc1ccccc1)NCC1CCCN(Cc2ccc3nonc3c2)C1 (stereo not given),x,x,x,i,0.94,103,-1
O=C(Cc1ccccc1)NCc1ccccn1,x,x,x,i,0.89,113,-6
CCOC(=O)Cn1c(=O)oc2cc(S(=O)(=O)N3CCn4c3nc3ccccc34)ccc21,x,x,-0.8,i,0.9,102,-10
Cn1nnnc1SCC(=O)NCc1ccco1,-8,55,0.1,i,1,93,-2
CCC(C)NS(=O)(=O)c1ccc(OCC(=O)N2CCCCC2)cc1 (stereo not given),-48,141,-0.2,i,0.87,103,7
O=C(CSc1nc2ccccc2[nH]1)Nc1c(F)cccc1F,89*,67*,-1.8,i,0.97,102,-3
Cc1cc2c(c(=O)n1Cc1ccc3c(c1)OCO3)C(c1cccnc1)C(C#N)=C(N)O2 (stereo not given),x,x,23*,i,0.94,101,-3
OCCN(C=NC1=NN(c2cccc(C(F)(F)F)c2)CC1)CCO,3,97,-2.5,i,0.92,99,2
COc1ccc(/C=N/NC(=O)CN(Cc2ccccc2)S(=O)(=O)c2ccc3c(c2)OCCO3)cc1,-60,136,0.8,i,0.86,108,-8
COc1ccc(-c2nnc(OCc3nc4ccccc4n3C)c3ccccc23)cc1,-14,70,0.1,i,1.1,120,-6
CCOC(=O)CN1C(=O)S/C(=C/c2ccc(O)c([N+](=O)[O-])c2)C1=O,-22,97,-2.1,i,1,101,0
COCCNc1ccc(N2C(=O)CCCC2=O)cc1[N+](=O)[O-],x,x,x,i,1,110,-2
O=C1NC(c2ccccc2)=C(c2ccc3ccccc3n2)C(c2ccc(F)cc2)N1 (stereo not given),37,100,-0.9,i,0.89,101,-5
CCCCSc1nnc(-c2ccc(NC(C)=O)cc2)n1C,x,x,0.6,i,1.2,103,14
CCc1ccc(Cn2nnc(C(=O)NCc3ccccc3OC)c2N)cc1,x,x,-1.2,i,1.2,99,-12
Cc1ccc(-n2ncc3c(=O)[nH]c(SCC(=O)N4CCCc5ccccc54)nc32)cc1,-25,85,-1.4,i,0.99,99,0
COCCCn1c(-c2ccsc2)nc2c1c(=O)[nH]c(=O)n2Cc1ccccc1,8,108,-0.9,i,1.1,100,24

# GALR2 ag, entries above that show a hit.
SMILES | GALR2 ag | HSV augment primary fold | RGS16-Gao | PKD1 inh
Cc1cc2c(c(=O)n1Cc1ccc3c(c1)OCO3)C(c1cccnc1)C(C#N)=C(N)O2 (stereo not given) | 23* | 0.94 | 101 | -3

# 3 compounds drawn at random from the list so far:
mol,Insulin prom inh,Insulin prom inh cell count,GALR2 ag,HSV augment,HSV augment primary fold,RGS16-Gao,PKD1 inh
Brc1ccc(Nc2nc3ccccc3n3nnnc23)cc1,-7,125,-1.1,x,x,95,-9
Cc1ccc(NC(=O)CCC(=O)NNC(=O)C(C)(C)C)c(C)c1,-14,96,x,i,1,101,-3
O=S(=O)(Cc1ccccc1)NCC1CCCN(Cc2ccc3nonc3c2)C1 (stereo not given),x,x,x,i,0.94,103,-1

# New compounds follow:
mol,Insulin prom inh,Insulin prom inh cell count,GALR2 ag,HSV augment,HSV augment primary fold,RGS16-Gao,PKD1 inh
CCCc1c(C(=O)NNc2cc(C(F)(F)F)ccc2Cl)cnn1-c1ccccc1,x,x,x,i,1.2,95,x
Cc1ccc2c(COC(=O)c3c(C)noc3C)cc(=O)oc2c1,2,182,x,i,0.97,107,0
CCOC(=O)N1CCN(c2c(N3CCN(c4cccc(C(F)(F)F)c4)CC3)c(=O)c2=O)CC1,x,x,-0.5,i,0.78,94,0
CCS(=O)(=O)N1CCC(C(=O)NCc2cc(OC)ccc2OC)CC1,-61,126,-4.2,i,0.98,121,0
Cc1cccc(CCNC(=O)CN(C)S(=O)(=O)c2ccc3c(c2)c(=O)n(C)c(=O)n3C)c1,x,x,-5.7,i,0.88,104,2
CCCNC(=O)NC(=O)COC(=O)CNS(=O)(=O)/C=C/c1ccccc1,-111,108,x,i,0.9,107,-8
Cc1cc(NC(=O)CSc2nc3cc(Cl)ccc3c(=O)n2CC(C)C)no1,0,94,x,i,0.99,103,-4
CC(=O)C1=C(O)C(=O)N(c2cccnc2)C1c1ccc(Cl)cc1 (stereo not given),-5,152,-4.6,i,0.87,101,-10
Fc1cccc(Cl)c1CNCc1ccccc1Cl,26,125,-2.2,i,0.96,99,0
O=C(CCCn1cnc([N+](=O)[O-])n1)Nc1ccc(Cl)c(Cl)c1,x,x,-1.8,i,0.89,101,7
CCC(Sc1ncccn1)C(=O)Nc1cc(C)on1 (stereo not given),-259,108,-2.0,i,1,104,-9
Cc1ccc(-c2csc(NC(=O)c3cnccn3)n2)cc1C,x,x,x,i,0.76,110,6
COC(=O)c1ccccc1OC(=O)c1cc[n+]([O-])cc1,40,96,x,i,0.88,98,1
CCn1c(SCc2ccc(C(=O)OC)o2)nnc1-c1c[nH]c2ccccc12,x,x,-2.2,i,0.97,103,9
CCN1CCN(CC(=O)N2c3ccccc3CC2C)CC1 (stereo not given),33,70,-2.8,i,0.97,105,-18
O=C(Cn1ncc2c(=O)oc3ccccc3c21)Nc1nc2ccccc2s1,-244,29,-0.9,i,0.99,101,-4
CCOC(=O)C1C(=O)CC(C)(O)C(C(=O)OCC)C1c1ccc(OC)cc1 (stereo not given),x,x,0.6,i,0.99,100,5
Cc1c(Cl)cccc1NC(=O)CSc1ccc(-c2cccnc2)nn1,23,100,x,x,x,105,-5
COc1ccc(CCNc2cc(N3CCN(C(=O)c4ccc(C)cc4)CC3)ccc2[N+](=O)[O-])cc1OC,44,142,-1.8,i,1,56,0
C/C(=N\NC(=O)C1COc2ccccc2O1)c1cc2ccccc2o1 (stereo not given),58,108,x,i,0.77,106,-3
CCOC(=O)C1=C[C@]2(CC)CCCN3CCc4c(n1c1ccccc41)[C@@H]32,-55,50,1.1,i,0.71,64,-10
c1ccc(-n2ncc3c(N4CCCCC4)ncnc32)cc1,x,x,-0.2,i,0.83,95,7
CCn1c2ccccc2c2nnc(SCC(=O)Nc3ncccn3)nc21,x,x,-0.9,i,0.83,98,-5
Cc1ccccc1NCC(=O)c1ccc(Br)cc1,31,159,-0.7,i,1,102,4
O=C(NC1CCCCCC1)c1cc2n(n1)C(C(F)(F)F)CC(c1ccco1)N2 (stereo not given),36,89,-0.2,i,0.92,83,7

# Next section
mol,Insulin prom inh,Insulin prom inh cell count,GALR2 ag,HSV augment,HSV augment primary fold,RGS16-Gao,PKD1 inh
COC(=O)C1=C(C)NC(=O)NC1c1cccc(OC)c1OCc1ccccc1 (stereo not given),-14,107,-2.0,x,x,103,-4
Cc1cc(C)c(C)c(OCc2nc(-c3cccnc3)no2)c1,10,99,0.5,i,0.88,106,-2
CN(CC(=O)Nc1cccc2c1CCCC2)S(=O)(=O)c1ccc(Br)cc1,x,x,-1.9,i,1,97,2
COC(=O)c1ccc(NC(=O)C(C)Oc2ccccc2)cc1 (stereo not given),-17,124,-1.7,i,0.93,107,1
CCOC(=O)c1c(CC(C)C)csc1NC(=O)COC(=O)c1cc(OC)c(OC)cc1[N+](=O)[O-],x,x,-1.2,i,1.1,106,-3
COc1ccc(C)cc1NC(=O)c1ccccc1NS(=O)(=O)c1ccc(Cl)s1,x,x,x,i,1,101,-6
N#CC1=C(S)N(c2ccccc2)C2(CCCCC2)NC1=O,-8,90,-1.7,x,x,104,-5
CC(C)(C)c1cc(CCC(=O)NNC(=S)NC(=O)c2ccccc2)cc(C(C)(C)C)c1O,-29,76,35*,i,0.97,104,-9
CC(C)Oc1cccc(-c2cc(C(=O)NC(=S)N(C)c3ccccc3C(=O)O)c3ccccc3n2)c1,28,119,-0.9,i,0.98,104,3
Cc1nnc(SCC(=O)Nc2cc(S(=O)(=O)N3CCCC3)ccc2Cl)s1,x,x,x,i,0.98,98,x
Cc1ccc(NC(=O)c2ccc3c(c2)OCCO3)cc1,11,119,-1.9,i,0.88,99,-2
CC(=O)c1sc2nc(-c3cccs3)ccc2c1N,-25,120,-1.3,i,0.95,101,-7
